Bioassay records deposited in PubChem by several laboratories.
Mtb hypoxia rep – Mtb hypoxia fluorescent reporter inhibition; M. tuberculosis hypoxia-regulated fluorescent reporter, fluorescence; fluorescence inhibition, % (concentration not given with the values); 0.1% of 300,000 active; AID 1159583;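 active means 35 to 45% if threefold the growth effect, above 45% if 1.5-fold the growth effect; inactive means the rest, general growth blockers included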;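 further: wells of about 50 µL received 100 nL stock; 0% = vehicle wells and 100% = reference inhibitor wells; whole bacteria with a GFP reporter of the hypoxia response; strong numbers were not always called active; many hits fall short of the cut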
PrP 5UTR inh – inhibition of PrP 5' UTR reporter expression | inhibition, % (test concentration not listed) | cell-based PrP 5' UTR mRNA reporter, plate reader | 0.35% of 340,000 active;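 active means every replicate at 50% or more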;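 further: 0 = median of the neutral control wells; tested in H4 reporter cells; numbers are from one replicate; inactives centre near -14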
Autofluor counter – compound fluorescence in toxin protease inhibitor counterscreen. compound autofluorescence counterscreen, microsphere flow cytometry; active compounds read high. fluorescence intensity (test concentration not listed). 3.1% of 360,000 active. AID 624483;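 active means at least 3 SD above the mean of all compounds, about 16000 in these data; inconclusive means too few beads counted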;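 further: 100 nL of 1 mM stock went into each well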
RN4220 kill – kills Staphylococcus aureus RN4220 | S. aureus RN4220 growth, OD600, 16 h | inhibition, % (concentration not given with the values) | 0.33% of 330,000 active;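 active means z-score of -3 or lower and OD600 up to 0.18 on both plates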;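 further: plate controls were untreated cells for no effect and reference antibiotic for full effect; stock transfer was 100 nL into about 80 µL; one replicate is shown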
Sa ugtP lethal – growth inhibition of S. aureus ugtP deletion strain; S. aureus RN4220 ugtP deletion, OD600 growth, 16 h; some inactives read as strong as hits; AID 1259309; 0.54% of 330,000 active; growth inhibition, % (no concentration beside the values);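 active means z-score under -3 and OD600 up to 0.15 on both plates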;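 further: plate controls were untreated wells for no effect and antibiotic for full effect; wells of about 80 µL received 100 nL stock; the first replicate is given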
BJeLR lethal – kills HRASV12-expressing BJeLR cells. inhibition, % (test concentration not listed). BJeLR (HRASV12) viability, CellTiter-Glo ATP luminescence, 48 h; reference of the scale not given here. 0.17% of 300,000 active. AID 1554;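 active means replicate mean above 50%; inconclusive means above 50% but judged a plate artefact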;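 further: 50 nL library stock added to about 25 µL; numbers are from one replicate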
Mtb hypoxia rep growth – recorded beside Mtb hypoxia rep, whose call it bears; growth inhibition, %; measured here: M. tuberculosis growth (absorbance);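 0% = vehicle and 100% = reference antibiotic; read after six days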
An asterisk follows results filed as active; u = inconclusive; x = not tested or not shown.

SMILES	Mtb hypoxia rep	Mtb hypoxia rep growth	PrP 5UTR inh	Autofluor counter	RN4220 kill	Sa ugtP lethal	BJeLR lethal
CCCCn1c(N)c(N(CCOC)C(=O)c2cc(-c3ccc(F)cc3)nc3ccccc23)c(=O)[nH]c1=O	-4	4	-14	x	1.6	0	7
COc1ccc(C2N=C(c3ccccc3)NC(c3ccccc3)=N2)cc1	16	3	-9	8322	3.7	-3	3
Cc1sc(NC(=O)Cn2nc(C(F)(F)F)cc2C)c(C(=O)OC(C)C)c1C	x	x	-26	2318	3.8	-9	6
CC(=O)N1c2ccccc2N(Cc2ccc(C)cc2C)C(=O)C1(C)C	0	4	-18	5528	2.1	10	8
O=C(c1ccccc1)N1CCN(c2ncnc3c(-c4ccccc4)nsc23)CC1	2	9	-85	4863	2.8	20	6
Cc1cc(=O)[nH]c(SCC(N)=O)c1C#N	x	x	8	4954	-0.7	-6	0
CC1(C)NC(=O)N(CCOCCSc2ccccc2)C1=O	8	0	-5	24307*	2.9	11	-5
O=C(NNc1ccc([N+](=O)[O-])cn1)Nc1ccc(N=Nc2ccccc2)cc1	-3	0	-8	3580	-8.7	3	x
N#CCC(=O)Nc1ccc(C(=O)OCc2ccccc2Oc2ccccc2)cc1	5	1	-20	4017	-13	10	-5
CC(=O)N(CCCNC(=O)c1ccccc1)C(=O)c1ccccc1	11	12	-3	2859	2.6	2	-6
Cn1cc(CCNCc2cn[nH]c2-c2ccc(-c3ccccc3)cc2)cn1	16	0	-21	3846	0.5	3	-2
CCOc1ccc(-n2c(SCC)nc3c(c2=O)SCC3)cc1	5	7	-1	4537	2.9	2	3
CCOCCCNC(=S)N(CCN(C)C)Cc1cc2cc3c(cc2[nH]c1=O)OCCO3	-4	-6	-27	2811	1.1	8	1
COc1ccc(CCNC(=O)CS(=O)Cc2nc(-c3cccs3)oc2C)cc1OC (stereo not given)	-4	6	-20	6535	3.7	-2	-1
CCOC(=O)Nc1ccc2c(c1)N(C(=O)CN(CC)CC)c1ccccc1C=C2	2	-2	-4	10602	2.0	4	-3
O=C(NCC1CCCO1)c1ccc(NC(=O)c2ccc(Br)cc2)cc1 (stereo not given)	5	4	x	6011	0.9	0	-2
CN(C(=O)Cc1c[nH]c2ccccc12)C(C(=O)Nc1ccc2c(c1)OCO2)c1ccccc1 (stereo not given)	-5	-7	-23	10810	2.7	-4	4
COc1ccc(Cc2nnc(NC(=O)c3ccccc3[N+](=O)[O-])s2)cc1	-17	-2	0	1989	3.6	1	1
COc1cc(-c2nnc(CSc3nnc(N)s3)o2)cc(OC)c1OC	0	4	-21	2451	-1.7	1	-6
O=S(=O)(Nc1cccc(S(=O)(=O)N2CCCCC2)c1)c1ccccc1F	4	0	-3	2728	8.9	-3	x
CC1(C)CC(=O)C(C=NCCN2CCN(C(=O)Cc3ccc(Cl)cc3)CC2)=C(O)C1	1	2	-32	10240	-2.4	-7	12
O=C(COc1ccccc1)Nc1ccc(S(=O)(=O)Nc2ccccn2)cc1	5	5	-19	5114	3.9	1	-6
O=C(CCc1ccccc1)N1CCN(c2ccccc2F)CC1	x	x	-22	4462	12	5	3
Cc1cccc(N(C(=O)CNC(=O)c2ccco2)C(C(=O)NC2CCCC2)c2ccncc2)c1 (stereo not given)	9	5	-34	4294	3.5	2	4
CC(=O)N1CCN(S(=O)(=O)c2cccc(C(=O)NC3CC3)c2)CC1	8	1	1	6276	3.8	9	x
COCCn1cnc2c1c(=O)n(CC(=O)NN)c(=O)n2Cc1ccccc1	-2	2	-23	3837	3.1	4	-2
CC(C)CC(=O)Nc1cccc(NC(=O)c2ccccc2Cl)c1	x	x	-19	2011	-2.3	2	-5
COc1ccc(C(C(=O)NC2CCCCC2)N(C(=O)Cc2c[nH]c3ccccc23)c2ccccc2)cc1OC (stereo not given)	7	4	-10	2557	2.1	-2	-4
O=C(CSc1cccc2cccc(Cl)c12)NC1=NCCS1	6	-1	-21	4044	3.1	-2	9
N=c1n(Cc2ccc(Cl)cc2)c2ccccc2n1CC(O)c1ccco1 (stereo not given)	x	x	2	3914	-1.9	-9	x

Copied from the list:
CC(=O)N1CCN(S(=O)(=O)c2cccc(C(=O)NC3CC3)c2)CC1 – Sa ugtP lethal: 9
CC1(C)CC(=O)C(C=NCCN2CCN(C(=O)Cc3ccc(Cl)cc3)CC2)=C(O)C1 – PrP 5UTR inh: -32
N=c1n(Cc2ccc(Cl)cc2)c2ccccc2n1CC(O)c1ccco1 (stereo not given) – PrP 5UTR inh: 2
Cc1cccc(N(C(=O)CNC(=O)c2ccco2)C(C(=O)NC2CCCC2)c2ccncc2)c1 (stereo not given) – RN4220 kill: 3.5
COc1ccc(C(C(=O)NC2CCCCC2)N(C(=O)Cc2c[nH]c3ccccc23)c2ccccc2)cc1OC (stereo not given) – Sa ugtP lethal: -2
O=C(CCc1ccccc1)N1CCN(c2ccccc2F)CC1 – BJeLR lethal: 3
O=C(CSc1cccc2cccc(Cl)c12)NC1=NCCS1 – Autofluor counter: 4044

Carrying on:
SMILES	Mtb hypoxia rep	Mtb hypoxia rep growth	PrP 5UTR inh	Autofluor counter	RN4220 kill	Sa ugtP lethal	BJeLR lethal
Cc1nn(C(C)C(=O)NCCc2cccs2)c(=O)c2nn(-c3ccccc3)c(C)c12 (stereo not given)	0	-4	-3	5960	-0.5	0	4
COc1ccc(NC(=O)Cn2nnc(C(=O)NCc3ccc(C)cc3)c2N)cc1OC	5	7	-5	4486	1.5	3	2
CN1CCC(N(C)C(=O)CNC(=O)c2ccc(C(C)(C)C)cc2)CC1	6	-1	-17	4123	4.2	7	-2
Cc1ccc(S(=O)(=O)N2CCN(S(=O)(=O)c3ccc(C)cc3)C2c2ccccc2)cc1	4	8	-3	15687	4.6	-4	1
CSc1ccccc1C(=O)NCCSC(C)(C)C	-4	12	-23	10947	0.1	2	6
Oc1ccc(CN2CCC(Cc3ccccc3)CC2)c2cccnc12	0	-1	x	x	68	74	7
O=C(NC1CCCc2c1cnn2-c1cc(F)cc(F)c1)c1cc[n+]([O-])cc1 (stereo not given)	2	6	-19	6072	-1.6	-6	5
O=C(NN=Cc1ccco1)c1ccc(NC(=O)C2CCCCC2)cc1	12	15	x	x	2.0	-1	x
COc1ccc(CCNC(=O)Cc2cc(OC)c(OC)cc2[N+](=O)[O-])cc1OC	x	x	-14	4766	1.8	-5	2
CCOc1cc(Cl)c(CNCCCN2CCOCC2)cc1OC	5	6	-8	3333	-0.6	11	-6

Compounds shown so far that contain a nitro group on carbon (3):
SMILES	Mtb hypoxia rep	Mtb hypoxia rep growth	PrP 5UTR inh	Autofluor counter	RN4220 kill	Sa ugtP lethal	BJeLR lethal
O=C(NNc1ccc([N+](=O)[O-])cn1)Nc1ccc(N=Nc2ccccc2)cc1	-3	0	-8	3580	-8.7	3	x
COc1ccc(Cc2nnc(NC(=O)c3ccccc3[N+](=O)[O-])s2)cc1	-17	-2	0	1989	3.6	1	1
COc1ccc(CCNC(=O)Cc2cc(OC)c(OC)cc2[N+](=O)[O-])cc1OC	x	x	-14	4766	1.8	-5	2

(further entries)
SMILES	Mtb hypoxia rep	Mtb hypoxia rep growth	PrP 5UTR inh	Autofluor counter	RN4220 kill	Sa ugtP lethal	BJeLR lethal
Cn1cccc1C1CCCN1CC(=O)Nc1ccc(F)c(F)c1F (stereo not given)	3	7	-11	u	-1.5	-3	x
CC1CCN(C(=O)c2[nH]cnc2C(=O)Nc2ccon2)CC1	11	2	-5	3561	2.5	-8	x
CC(C)(C)c1ccc(S(=O)(=O)N2CCN(C(=O)C3=COCCO3)CC2)cc1	1	9	-3	9119	3.5	3	x
Cc1c(Cl)cccc1NC(=O)Nc1ccn(C)n1	3	10	-23	2782	3.5	-2	-12
CON(C)C(=O)CC(CN(Cc1ccccc1)C(=O)OC(C)(C)C)c1ccc(Cl)cc1 (stereo not given)	-12	-3	-9	3783	1.8	18	x
O=C(NNC(=O)c1ccc(F)c(S(=O)(=O)N2CCOCC2)c1)c1ccc(Br)cc1	4	7	0	3598	3.2	6	x
O=C(O)C(Cc1ccccc1)NC(=O)C(c1ccccc1)(c1ccccc1)c1ccccc1 (stereo not given)	4	-10	x	x	30	25	x
CC(C)=C1CCC(C)CC1=NNC(N)=S (stereo not given)	7	10	-23	3807	-1.0	0	x
CCN1CCN(S(=O)(=O)c2ccc(Cl)c(C(=O)N(CC(C)C)C3CCS(=O)(=O)C3)c2)CC1 (stereo not given)	0	-1	13	u	3.4	2	x
O=C(OC1C2CCC1C1CN(CCc3ccccc3)CC12)c1ccccc1 (stereo not given)	-33	-28	-12	2230	3.9	5	-14
COc1ccc(N=Cc2c(C)[nH][nH]c2=O)cc1	11	2	-21	2915	4.0	3	-3
CN(C)C=Nc1nc2nccc(-c3ccc(F)cc3)n2n1	-3	1	x	x	5.6	8	x
COc1ccccc1-c1csc(NC(=O)c2cc(-c3cccs3)nc3ccccc23)n1	-1	7	-3	2647	4.7	-9	4
CC1(C)CC(=O)c2sc(N)nc2C1	6	10	-21	8940	4.8	-2	1
Cc1ccc(CN2CCC(n3nccc3NC(=O)CCOc3ccccc3)CC2)o1	5	-9	-9	6481	-0.2	0	3
Cc1ccc(S(=O)(=O)NCC(=O)NCC(=O)OCC(=O)N2CC(=O)Nc3ccccc32)cc1C	17	8	0	4634	2.9	11	6
Cc1onc(-c2ccccc2)c1C(=O)c1ccccc1	x	x	-14	3333	x	x	2
CCCNC(=O)Nc1cc(OCC)c(N2CCOCC2)cc1OCC	11	8	-23	4181	7.0	0	-16
NC(=O)NC(=O)COC(=O)c1cccnc1Nc1ccccc1F	8	5	-17	4658	2.7	13	3
O=C(Nc1cccc2ncccc12)c1ccc2c(c1)OCCO2	8	4	-19	3051	5.5	0	7

One compound at a time, as listed above. Values in the order: Mtb hypoxia rep	Mtb hypoxia rep growth	PrP 5UTR inh	Autofluor counter	RN4220 kill	Sa ugtP lethal	BJeLR lethal
COc1ccccc1-c1csc(NC(=O)c2cc(-c3cccs3)nc3ccccc23)n1 in the list: -1	7	-3	2647	4.7	-9	4
NC(=O)NC(=O)COC(=O)c1cccnc1Nc1ccccc1F in the list: 8	5	-17	4658	2.7	13	3
COc1ccc(N=Cc2c(C)[nH][nH]c2=O)cc1 in the list: 11	2	-21	2915	4.0	3	-3
Cc1ccc(S(=O)(=O)NCC(=O)NCC(=O)OCC(=O)N2CC(=O)Nc3ccccc32)cc1C in the list: 17	8	0	4634	2.9	11	6
CCCNC(=O)Nc1cc(OCC)c(N2CCOCC2)cc1OCC in the list: 11	8	-23	4181	7.0	0	-16

Going on with the list.
SMILES	Mtb hypoxia rep	Mtb hypoxia rep growth	PrP 5UTR inh	Autofluor counter	RN4220 kill	Sa ugtP lethal	BJeLR lethal
CNc1ccncc1S(=O)(=O)NC	-12	6	-21	2413	-1.3	1	3
COc1ccc(S(=O)(=O)NCCOc2ccccc2)cc1F	5	-2	-11	x	3.3	1	2
COc1ccccc1C1NC(=O)CCC1[N+](=O)[O-] (stereo not given)	5	-3	-12	3791	-2.0	1	-4
O=C(COC(=O)c1ccc(-n2cnnn2)cc1)c1ccc(Br)cc1	3	0	-20	4969	5.9	4	x
O=C(Nc1ccc(O)cc1C(=O)O)c1ccc2c(c1)C(=O)N(Cc1ccco1)C2=O	10	9	-29	6881	2.5	2	2
COc1ccccc1C(=O)N1CCNC(=O)C1CC(=O)Nc1ccc(Cl)cc1 (stereo not given)	x	x	2	4893	0.0	-7	-3
COc1ccc(C2C3C=CCC(C)C3C(=O)N2Cc2ccccc2)cc1Cl (stereo not given)	1	9	x	x	-1.1	0	x
O=C(O)c1ccc(NN=Cc2ccc(-c3ccccc3)cc2)cc1	10	8	x	x	-0.8	36	x
Cc1ccc(OCC(O)Cn2c3ccccc3c3ccccc32)cc1 (stereo not given)	7	9	-25	7403	12	65	-6
